Arbovirus anti – antivirals against arbovirus infection, primary screen, cell-based, full library, 10K replicate subset; AID 1251, 2008; arbovirus infection cell-based antiviral screen; inhibition, % at 10 µM; 0.37% of 200,000 active;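 active means inhibition from about 30%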;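 further: bluetongue infection of BSR cells; cell survival read as ATP light after 72 h; 0% = infected wells without compound and 100% = uninfected wells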
YopH PTP inh – YopH tyrosine phosphatase inhibitors, primary screen, biochemical, fluorescence Ex485/Em525; AID 898, 2007; inhibition, %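 (about 10 µM by stock and volumes)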; YopH tyrosine phosphatase [Yersinia enterocolitica]; 0.16% of 140,000 active;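 active means inhibition of 50% or more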;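 further: controls were vehicle for no effect and minimum signal wells for full effect; inactives centre near -20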
Mtb bLac sens – beta-lactam sensitization of Mtb H37Rv, H37Rv | M. tuberculosis H37Rv growth with meropenem, percent inhibition; hits of this screen are not shown here | 0.27% of 330,000 active | inhibition, % at 25 µM;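 active means about 74% or more and at least 40 points above the plate without the antibiotic, then above 30% in a dose series; inconclusive means first-round hits that could not be retested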;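 further: growth measured after seven days incubation then overnight dye step; 0% = bacteria only wells and 100% = bacteria with antibiotic; twin plates without the antibiotic show which effects depend on it; some results filed as inactive read as strong as hits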
RecA intein inh – Mtb RecA intein splicing inhibitors, primary screen, biochemical, fluorescence, HTS | Protein RecA (Mycobacterium tuberculosis (strain ATCC 25618 / H37Rv)), P9WHJ3 | cell-free RecA intein splicing | inhibition, %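 (about 9 µM by stock and volumes)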 | AID 2221, 2009 | 0.75% of 290,000 active; in the data active means inhibition above about 30%; inconclusive means no clear call, values can overlap the other calls;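 further: 0% = vehicle wells and 100% = reference inhibitor control wells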
Target sequence (P9WHJ3 whole entry, looked up): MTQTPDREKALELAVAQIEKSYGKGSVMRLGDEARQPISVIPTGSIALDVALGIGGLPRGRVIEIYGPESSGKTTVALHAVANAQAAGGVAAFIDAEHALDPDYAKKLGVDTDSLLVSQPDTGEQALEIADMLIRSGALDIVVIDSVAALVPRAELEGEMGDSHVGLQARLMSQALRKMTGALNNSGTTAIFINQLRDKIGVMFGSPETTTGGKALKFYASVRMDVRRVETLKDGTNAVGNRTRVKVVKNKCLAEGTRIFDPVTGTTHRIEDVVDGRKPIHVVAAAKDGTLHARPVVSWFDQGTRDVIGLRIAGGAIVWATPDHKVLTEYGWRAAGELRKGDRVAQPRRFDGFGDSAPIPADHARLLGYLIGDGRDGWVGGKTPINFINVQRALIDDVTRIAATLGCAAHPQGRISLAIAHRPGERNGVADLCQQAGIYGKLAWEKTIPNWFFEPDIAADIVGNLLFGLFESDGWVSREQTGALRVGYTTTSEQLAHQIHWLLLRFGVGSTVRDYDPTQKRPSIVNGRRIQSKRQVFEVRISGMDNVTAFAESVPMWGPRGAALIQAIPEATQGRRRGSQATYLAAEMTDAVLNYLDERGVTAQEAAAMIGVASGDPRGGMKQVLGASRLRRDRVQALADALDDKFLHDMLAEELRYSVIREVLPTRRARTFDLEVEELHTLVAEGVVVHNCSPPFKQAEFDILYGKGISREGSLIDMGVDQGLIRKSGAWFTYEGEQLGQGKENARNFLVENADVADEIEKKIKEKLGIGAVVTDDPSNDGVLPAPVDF
Mtb growth – M. tuberculosis H37Rv growth inhibitors, H37Rv strain (AID 1626); M. tuberculosis H37Rv growth inhibition; higher % means a stronger effect; inhibition, % at 10 µM, or IC50 in µM where a hit was titrated; 0.95% of 220,000 active;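 active means confirmed in a dose series; inconclusive means inhibition above 80% but not taken into the dose series; inactive means below 80% or under 30% at every dose of the series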;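 further: bacteria incubated seven days before Alamar blue readout; 0% = bacteria only wells and 100% = bacteria with antibiotic wells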
Arbovirus anti repeat – second read-out of Arbovirus anti, no call of its own (marks repeat the call); inhibition, %; measured here: 10K subset replicate screen; many hits read low in the repeat;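 first of two repeat runs on a subset; 0% = infected and 100% = uninfected wells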
* hit, by the source's call; u = inconclusive; x = not tested or not shown. These rows are one share of the data; count on the stated rates, not on these rows.

SMILES | Arbovirus anti | YopH PTP inh | Mtb bLac sens | RecA intein inh | Mtb growth | others
O=C(O)/C=C/c1cn(-c2ccccc2)nc1-c1cccc([N+](=O)[O-])c1 | x | x | 11 | x | -8%
CSc1nc(=S)n(-c2cc(C)ccc2C)c(C)c1C(C)=O | x | x | -1 | 13 | x
NC(=O)Cc1nc(-c2ccccc2)cs1 | -7 | -17 | -9 | -0.3 | -2%
COc1ccc(-c2csc(NC(=O)Cc3ccccc3F)n2)c(OC)c1 | x | x | 82 | 0.9 | x
CCN(CC)S(=O)(=O)c1ccc(Cl)c(NC(=O)c2ccc(C#N)cc2)c1 | 10 | -10 | 1 | -4.4 | 1%
COc1ccc(C(=O)CSc2nnc(NC(=O)C3CC(=O)N(c4cccc(OC)c4)C3)s2)cc1 (stereo not given) | 6 | -23 | -6 | -0.9 | -3%
COc1ccccc1N(C(=O)c1ccco1)C(C(=O)NC1CCCCC1)c1cc(OC)c(OC)c(OC)c1 (stereo not given) | x | x | -8 | -0.7 | x
COc1ccc(-c2cc(C(=O)NCc3ccco3)c3ccccc3n2)cc1OC | x | x | 19 | -16 | x
Nc1ncc(Br)cc1S(=O)(=O)N1CCCCCC1 | x | x | 2 | -0.2 | x
CC1(C)CC(NC(=O)C2CCC(=O)N(C3CC3)C2)CC(C)(C)C1 (stereo not given) | x | x | -3 | 1.9 | x
Cc1csc(NC(=O)c2ccc3nc[nH]c3c2)n1 | x | x | 4 | 0.5 | x
O=C(Nc1ccc(Cl)c([N+](=O)[O-])c1)c1ccco1 | x | x | 6 | -1.0 | x
CC1CN(CCOc2ccccc2-c2ccccc2)CC(C)O1 (stereo not given) | -8 | -20 | -2 | 3.7 | 3%
O=C(CC(=O)Nc1ccccc1[N+](=O)[O-])Nc1ccccc1[N+](=O)[O-] | x | x | -1 | 0.8 | x
COc1cc(OC)cc(-c2nnc(Nc3nc4c(F)cccc4s3)o2)c1 | -18 | -24 | 11 | x | u
C=CCOc1ccc2cccc(/C=N/NC(=O)c3cc4cc([N+](=O)[O-])ccc4s3)c2c1 | -13 | 14 | -2 | -30 | -5%
CC1(C)C(=O)Nc2ccccc2N1C(=O)COC(=O)COc1cccc(C(F)(F)F)c1 | x | x | 1 | -0.3 | x
CCOC(=O)N1CCC(NC(=O)CCC(=O)N2CC(C)Oc3ccc(Cl)cc32)CC1 (stereo not given) | 0 | -3 | -10 | 1.7 | 2%
O=C(CCC1CCCN(Cc2ccncc2)C1)NCc1ccc(F)c(F)c1 (stereo not given) | -4 | x | 7 | 2.0 | 5%
CCN(CC)CCN(C(=O)C1=COCCO1)c1nc2cc3c(cc2s1)OCO3 | -4 | x | -2 | -4.1 | -6%
Cc1cccc(C2c3[nH]c4ccccc4c3CCN2C(=O)c2ocnc2C)n1 (stereo not given) | 6 | x | 0 | 1.5 | -2%
Cc1cccc(C)c1NC(=S)NN1CCN(C)CC1 | 9 | 19 | -18 | -2.8 | 2%
Cc1ccc(NC(=O)COc2ccccc2)c(NC(=O)c2ccccc2C)c1 | x | -39 | -3 | 0.3 | 45%
O=c1c2ccccc2cnn1Cc1n[nH]c(=S)n1-c1cc(Cl)cc(Cl)c1 | -15 | -20 | 0 | -2.9 | -2%
Cc1ccc(N2CC(C(=O)N3CCc4ccccc4C3)CC2=O)cc1 (stereo not given) | -6 | -22 | 2 | 0.8 | -1%
O=C1NC[C@@H](Cc2ccc(O)cc2)N(CCc2cccc(F)c2)C1=O | x | x | -6 | 0.7 | -8%
Cc1csc(=O)n1CC(=O)OCC(=O)c1c(N)n(C)c(=O)n(C)c1=O | x | x | 4 | -1.9 | x
CCOC(=O)c1c(-c2ccc(F)cc2)csc1/N=C/N(C)C | -7 | x | 5 | -4.4 | -2%
C=CCc1cc(OC)ccc1OCCCCn1cncn1 | x | x | -10 | -1.1 | x
CCOC(=O)C1CCN(C(c2cccs2)c2sc3nc(C)nn3c2O)CC1 (stereo not given) | 6 | 11 | -4 | 2.9 | 1% | Arbovirus anti repeat=6

Retrieved by structure from above:
SMILES | Arbovirus anti | YopH PTP inh | Mtb bLac sens | RecA intein inh | Mtb growth | others
C=CCOc1ccc2cccc(/C=N/NC(=O)c3cc4cc([N+](=O)[O-])ccc4s3)c2c1 | -13 | 14 | -2 | -30 | -5%
O=C(CCC1CCCN(Cc2ccncc2)C1)NCc1ccc(F)c(F)c1 (stereo not given) | -4 | x | 7 | 2.0 | 5%

Continuation.
SMILES | Arbovirus anti | YopH PTP inh | Mtb bLac sens | RecA intein inh | Mtb growth | others
CCCCN(C(=O)CCC(=O)Nc1cc(C)on1)C(C(=O)NC1CCCC1)c1ccccc1C (stereo not given) | x | x | 4 | 1.5 | x
NC(=S)N/N=C/c1ccc(OC(=O)c2cccnc2)cc1 | x | x | 97 | 0.4 | x
Cc1ccc(NC(=O)c2cccc3cccnc23)cc1 | x | x | 57 | 4.3 | x
CCOC(=O)CNS(=O)(=O)c1ccc(S(=O)(=O)NC2CC2)cc1 | x | x | -1 | 0.0 | x
O=C(N/N=C(\c1ccccc1)c1ccccn1)c1cccc([N+](=O)[O-])c1 | -28 | x | 95 | 2.6 | u
CCN1C(=O)[C@@H]2[C@H](C1=O)[C@@H]1CC(C(=O)OC)=C[C@@H](C(=O)OC)C3C1=C(C(=O)C3(CC)CC)[C@@H]2C (stereo not given in full) | x | x | -3 | -2.4 | 6%
COc1cc2c(cc1NC(=S)Nc1cccc3ccccc13)oc1ccccc12 | -11 | -20 | 86 | -1.0 | u
O=C(/C=C/c1ccccc1)N1CCN(c2c(Cl)cccc2[N+](=O)[O-])CC1 | -4 | -29 | 48 | 4.4 | 9%
CCc1c(O)nc(SCC(=O)Nc2ccccc2)n(C(C)CC)c1=O (stereo not given) | 4 | -16 | 6 | 2.4 | -5%
O=C(CN1C(=O)C2C3C=CC(C3)C2C1=O)Nc1ccc(F)cc1 (stereo not given) | 0 | x | 4 | -0.5 | -3%
CCOc1ccc2oc(C(=O)NCC3CCCO3)c(C)c2c1 (stereo not given) | x | x | -3 | -2.3 | x
O=[N+]([O-])c1cc2c(cc1/C=N/Nc1nc(N3CCCC3)nc(N3CCCC3)n1)OCO2 | 10 | 5 | 54 | -0.3 | 6%
Cc1cccc(OCc2nc(-c3ccc(-n4cccc4)cc3)no2)c1 | -9 | -46 | 4 | 3.6 | 4%
COc1ccc(NC(=S)Nc2ccccc2OC)c(OC)c1 | -7 | x | -3 | -3.9 | 3%
CCN(CC)S(=O)(=O)c1ccc(N2CCOCC2)c(NC(=O)c2cnccn2)c1 | 6 | -26 | -3 | 0.6 | -7%
Cc1coc2cc3oc(=O)c(Cc4ccccc4)c(C)c3cc12 | -12 | -36 | -1 | -4.9 | -8%
ClCC1CN(Cc2ccccc2Cl)CCO1 (stereo not given) | 2 | x | -4 | -0.8 | -5%
COc1ccc(-c2cc(-c3ccco3)[nH]c(=O)c2C#N)cc1OC | x | x | 8 | -2.7 | x
CC12CCC(C(=O)NNC(=O)c3ccc(Br)cc3)(OC1=O)C2(C)C (stereo not given) | x | x | 2 | 2.1 | x
CCOC(=O)c1[nH]c(C)c(/C(O)=C2\C(=O)C(=O)N(CCN3CCOCC3)C2c2cccs2)c1C (stereo not given) | -21 | -38 | 5 | x | -6%
CC1CCN(C(=O)CNC(=O)CNC(=O)Cc2ccccc2)CC1 | x | x | -4 | -0.5 | x
Cc1c(C#N)c2ncn(CCCN(C)C)c(=O)c2n1-c1ccccc1 | 8 | -39 | -11 | -0.8 | -8%
Cc1nnc(SCc2cccs2)[nH]c1=O | 2 | 24 | 0 | -0.5 | 2%
CCN1CC2(COC(=O)c3ccccc3N)CCC(OC)C34C5CC6C(OC)CC(O)(C5C6OC)C(O)(C(OC)C23)C14 (stereo not given) | 9 | -16 | -4 | -1.3 | -9%
COc1ccc(CCn2c(NN=C(C)C)nc3c2c(=O)[nH]c(=O)n3C)cc1 | x | x | -5 | -0.9 | 6%
Cc1[nH]c(=O)c(C(=O)/C=C/c2ccccc2)c2c1CCCC2 | -39 | -25 | 85 | 1.7 | 7%
CS(=O)(=O)N(CC(=O)N1CCC(C(N)=O)CC1)c1ccc(Cl)c(C(F)(F)F)c1 | 6 | -18 | -9 | 4.3 | -9%
CCCN1C(=O)c2cccc3c(N4CCCCC4)ccc(c23)C1=O | -1 | -14 | 9 | -44 | 20%
COc1cc(CNn2c(C)n[nH]c2=S)cc(Cl)c1OCc1ccc(F)cc1 | -10 | -7 | 84 | 7.7 | 1%
Cc1cccc(C)c1NC(=O)C1CCCN(CCCc2ccccc2)C1 (stereo not given) | -1 | -20 | x | x | 0%
O=C(O)CSc1nnc(Cc2ccccc2)n1Cc1ccccc1 | 4 | -55 | -3 | 0.8 | -11%
O=C(NCCCN1CCCC1=O)c1cccnc1 | 7 | -24 | 2 | -3.5 | -4%
CCc1cccc(CC)c1N(COC)C(=O)Cn1c(C(C)O)nc2ccccc21 (stereo not given) | -5 | -34 | 18 | x | -8%
Cn1c(SCC(=O)NCc2ccco2)nnc1-c1ccccc1 | -2 | 32 | -5 | 6.7 | -9%
CCOC(CC(=O)NNC(=O)c1c(-c2ccccc2Cl)noc1C)OCC | x | x | -9 | 0.0 | x
COc1ccc(C(=O)Nc2ccc(Cl)c(Cl)c2)c(OC)n1 | 9 | -6 | 0 | -1.8 | 1%
COc1ccc(CCNC(=S)Nc2ccccc2)cc1 | x | x | 73 | -0.1 | 18%
CC(=O)NC(Cc1ccccc1)C(=O)OCC(=O)c1ccccc1 (stereo not given) | 1 | -19 | -3 | -0.3 | 0%

A draw from above in order of molar mass, smallest number first:
SMILES | Arbovirus anti | YopH PTP inh | Mtb bLac sens | RecA intein inh | Mtb growth | others
NC(=O)Cc1nc(-c2ccccc2)cs1 | -7 | -17 | -9 | -0.3 | -2%
Cc1ccc(NC(=O)c2cccc3cccnc23)cc1 | x | x | 57 | 4.3 | x
O=C(Nc1ccc(Cl)c([N+](=O)[O-])c1)c1ccco1 | x | x | 6 | -1.0 | x
O=C(CN1C(=O)C2C3C=CC(C3)C2C1=O)Nc1ccc(F)cc1 (stereo not given) | 0 | x | 4 | -0.5 | -3%
COc1ccc(NC(=S)Nc2ccccc2OC)c(OC)c1 | -7 | x | -3 | -3.9 | 3%
CCCN1C(=O)c2cccc3c(N4CCCCC4)ccc(c23)C1=O | -1 | -14 | 9 | -44 | 20%
COc1ccc(C(=O)Nc2ccc(Cl)c(Cl)c2)c(OC)n1 | 9 | -6 | 0 | -1.8 | 1%
Cn1c(SCC(=O)NCc2ccco2)nnc1-c1ccccc1 | -2 | 32 | -5 | 6.7 | -9%
Cc1cccc(OCc2nc(-c3ccc(-n4cccc4)cc3)no2)c1 | -9 | -46 | 4 | 3.6 | 4%
O=C(O)CSc1nnc(Cc2ccccc2)n1Cc1ccccc1 | 4 | -55 | -3 | 0.8 | -11%
O=C(CC(=O)Nc1ccccc1[N+](=O)[O-])Nc1ccccc1[N+](=O)[O-] | x | x | -1 | 0.8 | x
Cc1cccc(C)c1NC(=O)C1CCCN(CCCc2ccccc2)C1 (stereo not given) | -1 | -20 | x | x | 0%
CCc1c(O)nc(SCC(=O)Nc2ccccc2)n(C(C)CC)c1=O (stereo not given) | 4 | -16 | 6 | 2.4 | -5%
CCOC(=O)CNS(=O)(=O)c1ccc(S(=O)(=O)NC2CC2)cc1 | x | x | -1 | 0.0 | x
Cc1cccc(C2c3[nH]c4ccccc4c3CCN2C(=O)c2ocnc2C)n1 (stereo not given) | 6 | x | 0 | 1.5 | -2%
O=C(CCC1CCCN(Cc2ccncc2)C1)NCc1ccc(F)c(F)c1 (stereo not given) | -4 | x | 7 | 2.0 | 5%
Cc1ccc(NC(=O)COc2ccccc2)c(NC(=O)c2ccccc2C)c1 | x | -39 | -3 | 0.3 | 45%
COc1cc(CNn2c(C)n[nH]c2=S)cc(Cl)c1OCc1ccc(F)cc1 | -10 | -7 | 84 | 7.7 | 1%
C=CCOc1ccc2cccc(/C=N/NC(=O)c3cc4cc([N+](=O)[O-])ccc4s3)c2c1 | -13 | 14 | -2 | -30 | -5%
CC1(C)C(=O)Nc2ccccc2N1C(=O)COC(=O)COc1cccc(C(F)(F)F)c1 | x | x | 1 | -0.3 | x
